Assay outcomes: PubChem, National Center for Advancing Translational Sciences (NCATS)
NPR1 antag = human Npr1 receptor antagonism; hit rate 1.6% among 76,000; HEK293 hNpr1 GloSensor cGMP, ANP-stimulated luminescence; Potency, µM (series often up to 46.3 µM), for inactives: top-dose activity change, negative = inhibition, hits mostly inhibitors; P16066; active = well fitted inhibition curve with a large enough effect; inconclusive = small, poorly fitted or top-dose-only effect; inactive = no such curve, though single readings can be large or run the other way;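 further: nearly all actives have a fitted effect of over 60% in size; nearly all hits also lower the signal before the agonist is added; a reference antagonist and vehicle were the controls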
Target sequence (P16066 whole entry, looked up): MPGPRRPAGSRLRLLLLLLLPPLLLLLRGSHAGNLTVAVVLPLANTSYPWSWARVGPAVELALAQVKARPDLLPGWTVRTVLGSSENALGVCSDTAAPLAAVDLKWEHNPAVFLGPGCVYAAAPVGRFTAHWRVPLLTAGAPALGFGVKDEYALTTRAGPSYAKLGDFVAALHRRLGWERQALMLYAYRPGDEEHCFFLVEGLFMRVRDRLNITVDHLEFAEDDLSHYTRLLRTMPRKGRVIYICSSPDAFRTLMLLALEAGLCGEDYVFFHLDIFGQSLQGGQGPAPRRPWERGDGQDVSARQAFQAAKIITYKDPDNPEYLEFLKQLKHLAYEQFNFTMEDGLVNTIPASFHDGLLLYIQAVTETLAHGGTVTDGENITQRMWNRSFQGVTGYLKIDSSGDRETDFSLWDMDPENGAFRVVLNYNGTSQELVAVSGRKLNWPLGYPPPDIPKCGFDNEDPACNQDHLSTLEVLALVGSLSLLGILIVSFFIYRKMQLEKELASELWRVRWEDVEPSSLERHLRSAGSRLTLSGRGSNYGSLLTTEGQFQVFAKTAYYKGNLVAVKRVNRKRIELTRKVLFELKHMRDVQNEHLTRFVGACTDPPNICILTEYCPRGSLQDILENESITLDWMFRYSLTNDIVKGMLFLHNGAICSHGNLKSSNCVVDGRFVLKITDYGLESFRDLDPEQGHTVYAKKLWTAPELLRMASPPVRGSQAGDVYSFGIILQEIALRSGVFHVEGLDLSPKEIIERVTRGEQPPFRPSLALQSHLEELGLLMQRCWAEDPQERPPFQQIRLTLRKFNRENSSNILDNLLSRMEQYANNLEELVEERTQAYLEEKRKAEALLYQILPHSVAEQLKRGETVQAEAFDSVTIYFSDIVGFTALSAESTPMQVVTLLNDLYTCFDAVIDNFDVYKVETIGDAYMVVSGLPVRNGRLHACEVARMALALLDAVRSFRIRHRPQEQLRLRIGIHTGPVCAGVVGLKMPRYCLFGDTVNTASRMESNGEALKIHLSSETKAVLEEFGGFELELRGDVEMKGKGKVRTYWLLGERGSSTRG
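Compound pre-incubated 30 min at room temperature on GloSensor-loaded HEK293 cells stably carrying hNpr1 and the pGS-40F cGMP biosensor. Stimulation uses hNppA at 0.1 nM final; luminescence is taken at baseline and 20 min post-agonist.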
* marks the source's active call; other numbers are inactive results; ? = inconclusive; & = joins results of further samples; [ ] = another dose, or the depositor's remark. On the % scale 0 is the no-effect control and ±100 the full control effect; potency means the concentration at half of the fitted maximal effect.

NPR1 antag | mol
-1.1% | Cc1nc(C)c(C(=O)N2CCC(N3C(=O)C4(CCCC4)C3c3ccccc3)CC2)s1 (centres undefined)
5.8% | N#Cc1ccc(C(=O)N2C[C@@H]3C[C@H](C2)c2ccc(-c4cc5ccccc5s4)c(=O)n2C3)cc1
-5.6% | Cc1ccc2nc(-c3ccc(F)cc3)c(CN3CCCC(C(N)=O)C3)cc2c1 (centres undefined)
-12.0% | CC(C)NC(=O)CC1=C2CCCCC2N(C)C1=O (centres undefined)
2.7%[70.6 µM] | COc1ccc(C(=O)N2CCN3C(=O)N(Cc4ccccc4)C[C@H]3C2)cc1
-1.0%[70.6 µM] | Cc1csc(NC(=O)c2cnc3c(c2)N(C(=O)CCc2ccccc2)CCC3)n1
1.2%[70.6 µM] | CCN(CC)C(=O)[C@@H](C)C1CC[C@@]2(C)Cc3sc(N)nc3[C@@H](C)[C@@H]2[C@H]1O (some centres undefined)
2.5% | COc1cccc(CN2C[C@@H](CO)[C@H](NC(=O)C3CC3)C2)n1
3.3%[70.6 µM] | CC(C)CN=C1S[C@H]2[C@H]([C@@H](O)[C@H](O)C[C@@H]2C(N)=O)N1Cc1ccc(F)cc1
0.3% | O=C1Nc2ccc(-c3ccc4c(c3)OCO4)cc2C(=O)N2CCN(C(=O)C3CCCC3)C[C@@H]12
0.0% | CN(C)C(=O)c1ccc(-c2ccccc2S(=O)(=O)NC(C)(C)C)s1
-25.5% | CC(=O)c1ccc(NC(=O)N[C@H]2CO[C@H]3[C@@H]2OC[C@@H]3n2nnnc2-c2ccc(N(C)C)cc2)cc1

Continuation:
NPR1 antag | mol
0.0% | O=C(NCc1ccc2c(c1)OCO2)c1nc(-c2cc(Cl)cc(Cl)c2)c2ccccn12
? | Cc1ccccc1-c1cnc2[nH]cc(CC(=O)Nc3ccccn3)c2c1
-0.4% | Cc1ccc(CCNC(=O)Cn2nc3n(c2=O)CCC(N)CC3)cc1 (centres undefined)
7.1%[70.6 µM] | CC(C)CN1CCOC[C@H](Oc2ccc(C(F)(F)F)cc2)C1
5.4% | O=C(CCn1cccn1)N[C@@H]1CN(Cc2ccccc2)C[C@H]1CO
0.6% | COC(=O)C1=CN(CC(=O)Nc2ccc(C)cc2Cl)S(=O)(=O)N=C1C
2.0% | CC(=O)N1CCOc2ccc(CCC(=O)N3CCN(C4CCCCC4)CC3)cc2C1
5.7% | CN1C(=O)C(c2ccccc2)CC12CCN(C(=O)CN1CCCC1)CC2 (centres undefined)
-1.4% | CN(C)C[C@@H]1CN(c2ncccn2)C[C@H]1NC(=O)c1cccc(Cl)c1
1.7% | COc1ccc(CCC(=O)N2CCN(c3nnc4ccc(Cl)cn34)CC2)cc1
0.1% | O=C(NCc1cccc(-c2ccccc2)c1)C1CC(=O)N(C2CC2)C1 (centres undefined)
-22.1% | Cc1ccc(-n2cccc2CC(=O)N2CCCC(C)C2)cc1 (centres undefined)

Following part.
NPR1 antag | mol
2.0%[70.6 µM] | Cc1noc(C)c1-c1cc(-c2cccc(CO)c2)cn2cncc12
-20.7% | CC(C)c1noc(-c2cn(C3CCN(C(=O)c4ccc(F)cc4)CC3)nn2)n1
-0.3%[70.6 µM] | COc1ccc(-c2noc(C(=O)O)c2[C@@H](C)NC(=O)C2CCCC2)cc1
-0.6% | CN1C(=O)C(c2ccccc2)CC12CCN(CCC(=O)O)CC2 (centres undefined)
-0.8% | COCCc1noc([C@@H]2CC(F)(F)CN2C(=O)c2cnc(C)cn2)n1
6.0% | CN(Cc1cn(-c2ccccc2)nn1)Cc1noc(C2CCC2)n1
-2.7% | Cc1ccc(CNC(=O)CCc2conc2-c2ccc(F)cc2)o1
1.0% | COc1ccc(CNC(=O)[C@@H]2CCC[C@@H](NCc3c(C)noc3C)CN(C)C(=O)C2)cc1
? | O=C(c1ccco1)N1CCCN(c2cc(-c3ccc(Br)cc3)[nH]n2)CC1
3.1% | O=C(CCn1ccn2nc3c(c2c1=O)CCCC3)Nc1ccc(F)cc1Br
15.1%&1.4%[70.6 µM] | Cc1ccccc1C(=O)N1CCCCC12Cc1ccccc1NC2=O (centres undefined)
3.2%[70.6 µM] | C#CCNC(=O)C[C@@H]1O[C@H](CNS(=O)(=O)c2ccc(C)cc2)[C@@H](O)[C@H]1O

The list goes on.
NPR1 antag | mol
-0.8%[70.6 µM] | O=C(NC[C@H]1Cn2c(-c3ccc(F)cc3)cnc2CO1)C1CCCC1
? | CC(C)c1csc(CN2CC[C@@H](c3ccc4c(c3)OCO4)[C@H](O)C2)n1
2.3%[70.6 µM] | COCCOCC1(CNC(=O)c2ccc(OC)cc2)C[C@@H](O)[C@@H](O)C1 (some centres undefined)
9.9% | COc1ccccc1N1CCN(C2CCCN(Cc3cccc(C)n3)C2)CC1 (centres undefined)
-12.7% | CC(=O)Nc1ccc(-c2c(-c3ccc4c(c3)OCO4)nn(-c3cc(C)ccc3C)c2OC(C)=O)cc1
1.3%[70.6 µM] | O=C1CC2CCCC(C1)N2C(=O)c1ccccc1
0.2% | CN1C(=O)CC(C(=O)O)C12CCN(Cc1ccccc1OC1CCCC1)CC2 (centres undefined)
6.8%[70.6 µM] | Cc1ccc(C(=O)NC[C@H]2O[C@@H](CC(=O)N3CCc4ccccc43)[C@H](O)[C@@H]2O)cc1
-15.2%[70.6 µM] | CN1CCOc2c(C(=O)NCc3cnn(C)c3)cc(-c3cccnc3)cc21
1.5%[70.6 µM] | C#CCNC(=O)CC[C@H]1CNC(=O)[C@@H]2[C@@H](CCN2Cc2ccc(O)cc2)N1C
1.6% | COc1cccc(N2CCN(C(=O)CN3CC4CC(C3)[C@H]3CCCC(=O)N3C4)CC2)c1 (some centres undefined)
-5.1% | COC[C@@H]1CN(C(=O)c2ccnc(C)c2)C[C@H]1c1nc(C2CC2)no1

(list continues)
NPR1 antag | mol
1.5% | Cc1noc(C)c1[S+](=O)([O-])N1CCC2(CC1)C(=O)NN=C2c1ccccn1
-1.0% | CN(C)C[C@@H]1CN(S(C)(=O)=O)C[C@H]1NC(=O)c1cccc2[nH]ccc12
35.5µM* | Cn1cc(-c2cccc(O)c2)c2nc(COc3ccc(Cl)cc3)cn2c1=O
1.8% | COc1ccc2c(c1)c(CN1CCC3(CC1)CC(O)CCO3)cn2C (centres undefined)
-5.2% | C[C@@H]1CN(C(=O)c2ccc3c(c2)N(C)C(=O)CO3)C[C@@]1(O)C1CCC1
3.1% | CC(=O)N1CCCC(c2nn(C)c(=O)n2C2CCCC2)C1 (centres undefined)
-0.1% | O=C(C1CC1)N1CCCN(Cc2ccc3c(c2)OCO3)c2ccccc21
-3.4% | CCOc1ccc(C(=O)N[C@H]2C[C@@H]3OCC[C@H]23)cc1OCC
3.4% | CNC(=O)N1CCCCCCNC(=O)[C@@H]2C[C@@H](c3nc(-c4cccnc4)no3)C[C@@H]21
1.3% | CNC(=O)N1C[C@@H](CN(C)C)[C@H](NS(=O)(=O)c2c(C)noc2C)C1
-25.3% | COc1ccc(NC(=O)C2CCN(c3cc(C(F)(F)F)ncn3)CC2)c(OC)c1
-10.1% | COCC(=O)NC1CCC12CCN(S(=O)(=O)C(C)C)CC2 (centres undefined)

Shown bar-delimited: part of the list above
smiles | NPR1 antag
O=C(C1CC1)N1CCCN(Cc2ccc3c(c2)OCO3)c2ccccc21 | -0.1%
CC(=O)N1CCCC(c2nn(C)c(=O)n2C2CCCC2)C1 (centres undefined) | 3.1%
COc1ccc(NC(=O)C2CCN(c3cc(C(F)(F)F)ncn3)CC2)c(OC)c1 | -25.3%
Cn1cc(-c2cccc(O)c2)c2nc(COc3ccc(Cl)cc3)cn2c1=O | 35.5µM*
CN(C)C[C@@H]1CN(S(C)(=O)=O)C[C@H]1NC(=O)c1cccc2[nH]ccc12 | -1.0%

Following part.
NPR1 antag | mol
8.1% | CC(C)c1noc(-c2cccn3c(CNC(=O)c4ccc(Cl)cc4)nnc23)n1
-2.2%[70.6 µM] | CC(C)NC(=O)N1C[C@@H](F)[C@@H](OCc2nc3ccccc3o2)C1
-3.2% | COCCN1C(=O)c2ccccc2C(C(=O)NCCc2c[nH]c3ccccc23)C12CCCC2 (centres undefined)
-18.6% | O=C(N[C@H]1CCN2C(=O)c3cc(-c4ccccc4F)ccc3NC(=O)[C@H]12)c1cccs1
0.1% | O=C(c1cc(Cl)ccc1F)N1CCC(Cc2nc(-c3cnccn3)no2)CC1
-2.2% | CCCN(C)C(=O)CCC[C@H]1NC[C@@H]2C[C@H]1CN(Cc1ccccc1)C2
-12.2% | CCOC(=O)C1(Cc2ccccc2C)CCCN(Cc2nccn2CC)C1 (centres undefined)
1.5% | CN(C)C(=O)C1CN(C(=O)CCCc2ccccc2)CC12CCOCC2 (centres undefined)
-0.3% | COCc1nncn1C1CCN(C(=O)c2cc(F)cc(F)c2)CC1
1.0% | OC1(CN2CCN(CCc3ccccn3)CC2)CCCNC1 (centres undefined)
2.2% | N#Cc1cccc(-c2cn3c(n2)N(C(=O)c2ccoc2)CCC3)c1
2.2% | Cc1nc(CN2CCCC(CCc3ccccc3C(F)(F)F)C2)no1 (centres undefined)

The results go on.
NPR1 antag | mol
3.1% | CNC(=O)[C@H]1C[C@H](Oc2cccnc2)CN1C(=O)Cc1ccccc1
-4.4% | COc1cccc(C(=O)N2CCC(N3C[C@H](O)C[C@H]3C(=O)NCc3cc(F)cc(F)c3)CC2)c1
? | Cn1cnc(S(=O)(=O)NCCc2noc(-c3ccncc3)n2)c1
10µM* | CN(Cc1ccco1)C(=O)c1cccc2c1CCN2C(=O)Nc1ccccc1
18.2% | O=C1CCC2(CCN(c3ncc(F)cn3)CC2)CN1CC1CCCO1 (centres undefined)
4.9% | O=C(CC1C(=O)NCCN1Cc1ccccc1)NCc1nc(C2CC2)no1 (centres undefined)
? | c1ccc(Nc2cc3c(cn2)CN(Cc2c[nH]c4ccccc24)CCN3)cc1
-14.5% | COc1ccccc1CNC(=O)c1ccc2c(c1)N(C)C1CCCN1C2=O (centres undefined)
-16.4% | CCc1cc(=O)n(CC(=O)N2CCN(c3ccc(F)cc3)CC2)c(N2CCOCC2)n1
-17.5% | COc1ccccc1C(=O)NC1CCCN(c2cc(-c3ccc(F)cc3)[nH]n2)C1 (centres undefined)
1.1% | CCOc1ccccc1NC(=O)N[C@H](Cc1ccccc1)C(=O)N1CCOCCNC(=O)CC1
3.2% | O=C(NCCCn1nnc2ccccc21)C1CC(=O)N(Cc2ccccn2)C1 (centres undefined)

Carrying on:
NPR1 antag | mol
-14.8%[70.6 µM] | COc1nc2nc(CCc3ccccc3)n(C)c2cc1-c1ccnc(C)c1
2.0% | CN1CC2(CCN(C(=O)C3CCCN3C3CCNCC3)CC2)OC1=O (centres undefined)
-2.5% | Cc1cccc(Nc2ncncc2-c2nc(-c3ccccc3)no2)c1C
2.1% | COc1ccc(CCC(=O)N2CCC3(CC2)CC(Cc2nc(-c4cnccn4)no2)CCO3)cc1 (centres undefined)
-21.7% | Cc1cccc(-c2ccc3c(c2)C(=O)N2CC[C@H](NS(=O)(=O)c4cccs4)[C@H]2C(=O)N3)c1C
2.0% | O=S(=O)(c1ccccc1F)N1CCC(n2cnnc2C2CC2)CC1
1.7% | Cc1cccc(C(=O)N2C[C@H]3OC(=O)N(CCCN4CCOCC4)[C@H]3C2)c1
5.2%[70.6 µM] | Fc1ccc(-c2cnc([C@@H]3COCCN3Cc3cccnc3)[nH]2)cc1
-14.7% | COCCOC(=O)C1=C(C)N=C2SC=C(CC(=O)N3CCCC3)N2C1c1cccc(F)c1 (centres undefined)
-1.5% | Cc1nc(-c2c3n(c(=O)n(CC(=O)Nc4ccc(F)cc4)c2=O)CCCCC3)no1
-7.8% | CSc1ccc(-c2nc(CN3CCN(C(C)=O)CC3)c(C)o2)cc1
-1.5% | Cc1ccc(CNC(=O)c2ccc3c(c2)CN(Cc2cc(F)c(F)c(F)c2)CCO3)cc1

(cont.)
NPR1 antag | mol
11.4%[70.6 µM] | COCC1(CNCc2cccc(OC)c2)C[C@@H](O)[C@@H](O)C1 (some centres undefined)
-1.2% | CCn1ccc(C(=O)N2CCCC(CN3CCC(C)CC3)CC2)n1 (centres undefined)
2.1% | CC(=O)NCCc1ncc(C)n1C1CCCC1
-6.5% | CC(C)[C@@H]1CN(S(=O)(=O)c2ccc(Cl)cc2Cl)C[C@H]1N(C)C
-1.7% | O=C1NCCC[C@@H]1NC(=O)[C@H]1CN(C(=O)c2cccc(F)c2)CCN1C(=O)c1cncnc1
-3.3% | CC(C)c1ccc(N2C[C@]34C=C[C@H](O3)C(C(=O)N3CCSCC3)C4C2=O)cc1 (some centres undefined)
-3.6% | COc1ccccc1CN1C[C@@H]2C(=O)N(CCCN3CCCC3=O)C(=O)[C@@H]2C1
10µM* | COc1cccc(CNC(=O)Nc2cccc(-c3ccc(N4CCCCC4)nn3)c2)c1
17.9% | O=C(c1cccnc1)N1CCCC2(C1)C(=NC1CCCC1)NC(=O)N2c1cc(F)cc(F)c1 (centres undefined)
-16.5% | COc1ccc(-c2cn3c(n2)N(C(=O)Cn2ccnc2)CCC3)cc1
5.6% | COCCOCc1nc(C2CCN(C(=O)Nc3ccccc3F)CC2)no1
4.5%[70.6 µM] | CCC(CC)C(=O)Nc1ccc([C@@H](O)[C@H]2COCC(=O)N2)cc1
-6.7% | CCC1(N2CCN(C(=O)C3COc4ccccc4O3)CC2)CCN(C(=O)NC)C1 (centres undefined)
-25.5% | OC(CNc1nccc(-c2cccnc2)n1)COc1ccc(Cl)cc1 (centres undefined)
0.5% | O=C1CC(c2ccccc2)N(Cc2ccncc2)CCCN(C(=O)C2(c3ccccc3)CC2)CCN1 (centres undefined)

Compounds shown so far with two or more sulfur atoms (two):
NPR1 antag | mol
0.0% | CN(C)C(=O)c1ccc(-c2ccccc2S(=O)(=O)NC(C)(C)C)s1
-21.7% | Cc1cccc(-c2ccc3c(c2)C(=O)N2CC[C@H](NS(=O)(=O)c4cccs4)[C@H]2C(=O)N3)c1C

Some of the compounds tested, so the mix of outcomes need not match the whole.
